Screens deposited in PubChem by National Center for Advancing Translational Sciences (NCATS).
RE007 growth inh: less growth of the S. pombe RE007 Vpr strain; S. pombe RE007 Vpr strain, BacTiter-Glo ATP luminescence, 24 h; control for the full effect not named in the record; Potency, µM (highest dose often 92.2 µM), inactives show at the highest dose activity change, negative = less growth; 360,000 compounds, 0.21% hits; AID 651644; active = well fitted falling curve with a large enough effect; inconclusive = small, poorly fitted or top-dose-only effect; inactive = no such curve, though single readings can be large or run the other way;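 note: nearly all actives have a fitted effect of over 50% in size; the assay follows cell death caused by Vpr and the record does not say whether a fall means rescue or toxicity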
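Fission yeast RE007 carrying one integrated HIV-1 vpr copy, seeded at OD 0.01 in PMG+AL medium with 23 nL pinned compound. Grown 24 h at 30 degrees; viability read by BacTiter-Glo luminescence after 5 min.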
StopGo reporter: FMDV 2A StopGo reporter, luciferase signal | 410,000 compounds, 1.2% hits | Potency, µM (highest dose often 57.9 µM), for inactives: at the highest dose signal change, negative = less light | AID 1159524 | human cells with a luciferase reporter of 2A StopGo recoding; control for the full effect not named in the record; active = well fitted falling curve with a large enough effect; inconclusive = small, poorly fitted or top-dose-only effect; inactive = no such curve, though single readings can be large or run the other way; tested in HEK293T cells; note: nearly all actives have a fitted effect of over 45% in size; luciferase light after 4 h
* marks the source's active call; other numbers are inactive results; ? = inconclusive; [ ] = dose if it differs, or a comment. % is set by controls: 0 for no effect and ±100 for the full control effect; potency is the fitted concentration of half-maximal effect. This is a subset; the hit share may differ from the screen's.

SMILES	RE007 growth inh	StopGo reporter
COc1ccc(C(=O)NCC[N+](C)(C)C)cc1	0%	-15%
O=C(NCc1cccc(C(F)(F)F)c1)c1cc(-c2ccccc2)nn1CC1CC(c2cccnc2)=NO1 (stereo not given)	-4%	-20%
CSc1ccccc1C(=O)OCC(=O)NC1CCCCCCC1	-9%	-1%
COc1ccc(C(CNC(=O)c2ccc(C)c(S(=O)(=O)N3CCCCC3)c2)N2CCCC2)cc1 (stereo not given)	-5%	0%
O=C(N/N=C/c1c(O)ccc2ccccc12)Nc1ccccc1	7%	32%[activator]
CCc1nc2ccc(C(=O)NCCOc3ccc(OC)cc3)cn2c1N(CC)CCOC	-9%[18.4 µM]	-1%
CC1(c2nnc(-c3cccc(Cl)c3)o2)CC(c2cccc(Cl)c2)=NO1 (stereo not given)	10%	-2%
Cc1noc(C)c1S(=O)(=O)NC(=O)C1(C)CCN1C(=O)CC(c1ccccc1)c1ccccc1 (stereo not given)	-2%[18.4 µM]	-15%
CC(=O)Nc1cc(-c2cccc(C(=O)N(C)C)c2)cn2c(-c3ccc(C(C)=O)cc3)cnc12	4%[18.4 µM]	-1%
Cc1noc(C)c1S(=O)(=O)N(C)C[C@H]1OCCCC[C@H](C)Oc2ccc(NC(=O)CCCN(C)C)cc2C(=O)N([C@H](C)CO)C[C@@H]1C	-19%	0%
C=C1C(=O)[C@]23C[C@H]1CC[C@H]2[C@]1(C)[C@@H](O)CC[C@@](C)(C(=O)O)[C@H]1C[C@@H]3O	12%	40µM*
O=C(NCCN1CCOCC1)c1ccc(NC(=O)c2ccc(Br)o2)cc1	60%	-14%
COc1ccc(-n2nnnc2CNC(=O)C2CC(=O)N(c3ccc(F)cc3)C2)cc1 (stereo not given)	-10%	-15%
COc1ccc(SC2=C[C@@]3(O)CC[C@@H](O)[C@@](Sc4ccc(OC)cc4)(C2=O)[C@H]3O)cc1	-5%	-27%
COC(=O)C1=CO[C@@H](C)[C@@H]2CN(CCc3c[nH]c4ccccc34)CC[C@H]12	-15%	-12%
C#Cc1cccc(Nc2nc(NCc3ccccc3)nc3ccsc23)c1	?	-27%
O=C(OCC(=O)c1ccc[nH]1)c1ccc(S(=O)(=O)C(F)F)cc1	5%	-12%
COc1ccccc1NC(=O)N(C)C[C@@H]1OCc2cnnn2CCCC(=O)N([C@H](C)CO)C[C@H]1C	6%	-9%
COc1ccc(NC(=O)c2cc(C3CCCCN3S(C)(=O)=O)on2)c(C)c1 (stereo not given)	1%	6%
CN(C(=O)COc1ncnc2ccc(Br)cc12)C1CCCCC1	22%	-5%
COc1ccc(CC(=O)NC(=S)Nc2cccc(CO)c2)cc1	-7%	6%
COc1ccc(C(C#N)=Cc2ccc(N(C)CCC#N)cc2)cc1	5%	35%[activator]
COc1cc(OC)cc(C(=O)N(Cc2ccco2)c2c(N)n(Cc3ccccc3)c(=O)[nH]c2=O)c1	10%	-5%
CCN1C(=O)[C@H]2[C@H]3CN=C(SCC(=O)c4ccccc4)N3[C@@](C)(C(=O)OC)[C@H]2C1=O	-21%	-4%
COc1ccc(NC(=O)COC(=O)c2c(C)noc2C)cc1Cl	-2%	-1%
Continuation:
SMILES	RE007 growth inh	StopGo reporter
CC1(C)NC(=O)N(CCC(=O)Nc2ccc(C(C)(C)C)cc2)C1=O	1%	2%
COCCNC(=O)C1(C)CCCN(C(=O)c2ccccc2OC(F)(F)F)C1 (stereo not given)	-13%[18.4 µM]	-12%
CCCC(=O)N1CCC1(C)C(=O)Nc1scc(C)c1C#N (stereo not given)	-12%	-16%
COc1ccc(S(=O)(=O)N2CCN(C(=O)c3ccccc3Cc3ccccc3)CC2)cc1OC	-3%	-6%
C[C@@H]1CN([C@H](C)CO)C(=O)CCCn2nncc2CO[C@H]1CN(C)C(=O)Nc1ccc(N2CCN(C)CC2)cc1	-1%	-7%
O=C(COC(=O)COc1ccc(Cl)cc1Br)NC1CCCC1	-10%	1%
CCOC(=O)c1cccc(NC(=O)c2c(O)[nH]c(=O)[nH]c2=O)c1	5%	10%
C[C@@H]1CCCCO[C@@H](CN(C)Cc2ccc3c(c2)OCO3)[C@@H](C)CN([C@H](C)CO)C(=O)c2cc(N(C)C)ccc2O1	2%	-3%
COC(=O)[C@@H]1N=C(c2ccc(OC)cc2)O[C@]12C(=O)N(Cc1ccc(OC)cc1)c1ccccc12	-18%	-10%
OCCN1CCN(c2ncnc3c2ncn3[C@H]2CN(Cc3ccccc3)C[C@@H](CO)O2)CC1	-7%	-10%
CCC(=O)N1CCCC(C)(C(=O)NS(=O)(=O)c2ccccc2Cl)C1 (stereo not given)	6%	-8%
COc1ccc(S(=O)(=O)N[C@H]2CC[C@H](CCNC(=O)c3ccccc3F)O[C@@H]2CO)cc1	2%	-11%
CCCCN(C)c1c(C)nc2ccc(C(=O)NCc3ccc4c(c3)OCO4)cn12	-12%[18.4 µM]	-13%
CCC(=O)N1CCCC1(C)C(=O)Nc1ccc(OC(F)F)cc1 (stereo not given)	7%	-13%
COc1ccc2c3c([nH]c2c1)[C@H]1C[C@H]2[C@H](C[C@@H](O)[C@H](OC)[C@H]2C(=O)O)CN1CC3	0%	-13%
O=C(NCc1ccc(F)cc1)c1cc(C2CCCCN2S(=O)(=O)c2cccs2)on1 (stereo not given)	4%	-13%
CCC1Cc2[nH]c(=S)[nH]c(=O)c2C(c2ccc(Cl)cc2)O1 (stereo not given)	10%	0%
CCCCNC(=O)C1(C)CCC(=O)N1CCc1c[nH]c2ccccc12 (stereo not given)	9%	-4%
CC1(C(=O)NCc2ccccc2)CSCC(=O)N1CC(F)(F)F (stereo not given)	?	-3%
CC(=O)OCC1(O)CC23CCC4c5ccoc5CCC4(C)C2CCC1C3 (stereo not given)	14%	-3%
CCCC(=O)NC(C)c1nc(-c2ccc(C)cc2)no1 (stereo not given)	18%	9%
CC1(C)Cc2cccc(OC(=O)NCCc3ccc(F)cc3)c2O1	9%	-16%
CC1(C(=O)Nc2ccc(Cl)c(Cl)c2)CCN1C(=O)C1CCCCC1 (stereo not given)	4%	-14%
CCCS(=O)(=O)NC(=O)C1(C)CCN(C(=O)c2cccc(C(F)(F)F)c2)C1 (stereo not given)	0%	-4%
CC1(c2nnc(-c3ccccc3)o2)CC(c2c(Cl)cccc2Cl)=NO1 (stereo not given)	4%	-18%

A section from the list above, as a working copy:
SMILES	RE007 growth inh	StopGo reporter
CC1(C(=O)Nc2ccc(Cl)c(Cl)c2)CCN1C(=O)C1CCCCC1 (stereo not given)	4%	-14%
CCCS(=O)(=O)NC(=O)C1(C)CCN(C(=O)c2cccc(C(F)(F)F)c2)C1 (stereo not given)	0%	-4%
CC1(c2nnc(-c3ccccc3)o2)CC(c2c(Cl)cccc2Cl)=NO1 (stereo not given)	4%	-18%

The results go on.
SMILES	RE007 growth inh	StopGo reporter
COc1ccccc1C1=CC(=O)CCC1	-10%	4%
C[C@@H]1CN([C@H](C)CO)S(=O)(=O)c2ccc(C#Cc3ccccc3F)cc2O[C@@H]1CN(C)C(=O)Cc1ccccc1	14%	-5%
CO[C@@H]1CN(C)C(=O)c2cc(NC(=O)NC3CCCCC3)ccc2OC[C@@H](C)N(CCc2ccccc2)C[C@H]1C	-10%	-22%
N#Cc1c(N)[nH]c(C(=O)c2ccccc2)c1-c1ccc(Cl)cc1	6%	-23%
O=C(COC(=O)Cc1ccc(Cl)cc1Cl)NCc1ccccc1	-12%	-18%
CCCNC(=O)C1(C)CCCN(C(=O)c2ccc(OC)cc2OC)C1 (stereo not given)	-1%	-15%
COc1ccccc1S(=O)(=O)N(C)C[C@H]1OCc2cnnn2CCCC(=O)N([C@H](C)CO)C[C@H]1C	-22%	-11%
CC(C)CN1Cc2ccccc2-n2nncc2C1	-7%	-12%
C#CCN(C[C@@H]1[C@@H](OC(=O)NC2CCCC2)[C@@H](OC(=O)NC2CCCC2)CN(C(=O)OC(C)C)N1C(=O)OC(C)C)S(=O)(=O)c1ccc(C)cc1	-6%	10%
COc1ccccc1C(=O)NCC(=O)N(C)Cc1nc2ccccc2c(=O)[nH]1	6%	-25%
O=C(Nc1ccc(C(=O)O)cc1)/C(=C\c1ccc([N+](=O)[O-])cc1)NC(=O)c1ccco1	0%	-15%
COc1cccc(N2[C@@H](CC(=O)O)c3cc(C(F)(F)F)ccc3S2(=O)=O)c1	-9%	-3%
COCOc1ccc(-c2cc(=O)c3c(O)cc(OCOC)cc3o2)cc1	-17%	36%[activator]
O=C(CC[C@H]1O[C@@H](n2cnc3c(NC(=O)c4ccccc4)ncnc32)[C@H](O)[C@@H]1O)NCC1CCCCC1	0%	-14%
COc1ccccc1Cc1c(-c2cccc(Br)c2)nc2ccc(Cl)cn12	-6%	26%
COC(=O)[C@@]1(C(C)C)N=C(c2cc(OC)c(OC)c(OC)c2)[C@]2(O1)C(=O)N(Cc1ccc(OC)cc1)c1ccc(Br)cc12	-1%	-17%
CN1C(=O)c2ccccc2CC12c1ccccc1C(=O)N2C (stereo not given)	0%	-24%
CC(C)CC(N)c1csc(NC(=O)C(c2ccccc2)c2ccccc2)n1 (stereo not given)	10%	?
O=C1NC[C@H](CCCCN2CCN(CC3CCCCC3)C(=O)C2=O)N(CCc2ccccc2)C1=O	2%	-14%
Cc1ccc(NC(=O)[C@@H]2O[C@H](CO)[C@@H](O)[C@H]2O)cc1C(F)(F)F	-2%	-9%
COc1ccccc1-c1cnc(C(O)c2ccccc2)[nH]1 (stereo not given)	30%[18.4 µM]	36%[activator]
COC(=O)C1=CN(c2ccc(OC)cc2)C(N)=C(C#N)C1c1ccccc1F (stereo not given)	13%	-15%
CC1(C(=O)NS(=O)(=O)c2ccccc2OC(F)(F)F)CCN1C(=O)Cc1ccccc1 (stereo not given)	7%	4%
OCC1OC(n2cnc3c(N4CCCC4)ncnc32)C(O)C1O (stereo not given)	5%	-10%
OCCCn1c(CCNc2nc(-c3ccc(F)cc3)cs2)nc2cc(C(F)(F)F)ccc21	-17%	?

Profiles, quoted from the list. Screens in order: RE007 growth inh | StopGo reporter
Shown for N#Cc1c(N)[nH]c(C(=O)c2ccccc2)c1-c1ccc(Cl)cc1 : 6% | -23%
Shown for CO[C@@H]1CN(C)C(=O)c2cc(NC(=O)NC3CCCCC3)ccc2OC[C@@H](C)N(CCc2ccccc2)C[C@H]1C : -10% | -22%

(next part)
SMILES	RE007 growth inh	StopGo reporter
O=C1C=CC(n2cc(F)c(=O)[nH]c2=O)O1 (stereo not given)	?	-12%
Cc1noc(C)c1NC(=O)N(C)C[C@H]1OCCCC[C@@H](C)Oc2ccc(NC(=O)Nc3ccc(F)cc3)cc2C(=O)N([C@@H](C)CO)C[C@H]1C	3%	-3%
COc1ccc(Br)cc1C=NNS(=O)(=O)c1ccc(C)cc1	0%	-3%
COCCNC(=O)C1(C)CCCN(C(=O)c2cccnc2SC)C1 (stereo not given)	2%	-14%
CC(=O)NC(c1ccc(F)c(F)c1)c1nc(-c2ccccc2C)cs1 (stereo not given)	-8%	-10%
Cc1ccccc1C(=O)NC1CC2CCCC(C1)N2Cc1ccccc1Cl (stereo not given)	-14%	0%
C[C@@H]1COc2cc(N3CCN(C)CC3)ccc2S(=O)(=O)N1	2%	-3%
COc1cccc(NC(=O)CN(C)C(=O)/C=C/c2cn(-c3ccccc3)nc2-c2ccc(OC)c(OC)c2)c1	9%	-32%
Cc1ccc(Nc2nc(NCc3cccs3)nc3ccsc23)c(C)c1	-22%	?
CNc1ccc2ncc(-c3ccccc3NC(C)=O)n2n1	2%	-9%
CCOC(=O)[C@]12CCCC=C1N(Cc1ccco1)C(=O)[C@H](CC(=O)NCc1cccc(C(F)(F)F)c1)C2	-15%	-5%
CS(=O)(=O)c1ccc(CNC(=O)[C@]2(C(F)(F)F)C[C@H](CCc3ccccc3)CCCO2)cc1	-9%	-26%
Cc1cccc(Nc2cc(=O)n(C)c(=O)n2C)c1	-4%	-12%
COC(=O)[C@H]1C[C@H]1[C@@H](NC(=O)c1cccnc1)c1ccccc1	-3%	-11%
COc1ccccc1-c1ccc2c(c1)O[C@@H](CN(C)C(=O)Nc1cccc(F)c1)[C@H](C)CN([C@H](C)CO)S2(=O)=O	-4%	46%[activator]
COC(=O)/C=C1\OCc2cc(OC)c(OCc3ccccc3)cc21	-15%	-18%
CCS(=O)(=O)N1Cc2cc(C(=O)NCC3CC3)nc(-c3cccc(-c4cccnc4)c3)c2[C@@H]1CCO	19%	-28%
Cc1ccc2ccccc2c1C(O)c1ncc(-c2ccccc2Cl)[nH]1 (stereo not given)	-16%	25%
CC(C)CNC(=O)C1(C)CCCN1Cc1ccccc1OC(F)F (stereo not given)	-6%[18.4 µM]	-27%
CCCNC(=O)c1cc(C2CCCCN2C(=O)c2cc(C(C)(C)C)nn2C)on1 (stereo not given)	-4%[18.4 µM]	-24%

Filtered by structure: the compounds so far containing two or more sulfur atoms.
SMILES	RE007 growth inh	StopGo reporter
COc1ccc(SC2=C[C@@]3(O)CC[C@@H](O)[C@@](Sc4ccc(OC)cc4)(C2=O)[C@H]3O)cc1	-5%	-27%
O=C(NCc1ccc(F)cc1)c1cc(C2CCCCN2S(=O)(=O)c2cccs2)on1 (stereo not given)	4%	-13%
Cc1ccc(Nc2nc(NCc3cccs3)nc3ccsc23)c(C)c1	-22%	?

Quoted at random: 2 compounds from above, in no set order.
SMILES	RE007 growth inh	StopGo reporter
COC(=O)/C=C1\OCc2cc(OC)c(OCc3ccccc3)cc21	-15%	-18%
CC(=O)NC(c1ccc(F)c(F)c1)c1nc(-c2ccccc2C)cs1 (stereo not given)	-8%	-10%
